High-throughput results from PubChem.
GALR2 agonist – agonists of human galanin receptor 2 (GALR2); O43603; GALR2-expressing cells, agonist activation read-out; activation, %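 (tested at 5 µM)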; 0.48% of 140,000 active; AID 803;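 active = above mean plus 3 SD of all compounds, about 5% in these data, not always enough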;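 note: 0% = vehicle buffer wells and 100% = reference agonist at full effect; tested in CHO reporter cells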
Target sequence (O43603 whole entry, looked up): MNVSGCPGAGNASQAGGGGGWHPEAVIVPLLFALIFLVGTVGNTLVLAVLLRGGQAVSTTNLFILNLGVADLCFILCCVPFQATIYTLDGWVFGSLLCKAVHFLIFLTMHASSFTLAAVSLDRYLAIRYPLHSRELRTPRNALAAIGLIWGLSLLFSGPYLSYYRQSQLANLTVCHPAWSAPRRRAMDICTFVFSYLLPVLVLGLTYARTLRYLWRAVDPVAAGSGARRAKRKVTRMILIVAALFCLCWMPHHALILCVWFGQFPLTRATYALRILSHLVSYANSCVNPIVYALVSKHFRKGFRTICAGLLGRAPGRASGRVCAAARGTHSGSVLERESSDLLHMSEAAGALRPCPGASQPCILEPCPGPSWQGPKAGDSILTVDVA
RGS16-Gao – regulators of human RGS16-Galphao interaction. O15492+P09471. bead-based flow cytometry RGS16-Galphao binding, fluorescence; actives lie on both sides. binding response (% of control), % at 10 µM. 0.38% of 220,000 active;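 active = below 25% or above 175%, edge rows of some plates excepted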;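 note: Galphao activated by GDP with aluminum fluoride before binding; 100% = wells without compound and 0% = beads without RGS; some results beyond the cut were filed as inactive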
Target sequence (O15492 whole entry, looked up): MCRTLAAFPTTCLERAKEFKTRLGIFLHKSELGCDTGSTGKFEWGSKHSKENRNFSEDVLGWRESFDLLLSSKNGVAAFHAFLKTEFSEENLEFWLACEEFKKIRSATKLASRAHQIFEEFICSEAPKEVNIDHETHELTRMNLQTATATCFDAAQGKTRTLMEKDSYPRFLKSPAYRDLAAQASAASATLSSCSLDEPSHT
Target sequence (P09471 whole entry, looked up): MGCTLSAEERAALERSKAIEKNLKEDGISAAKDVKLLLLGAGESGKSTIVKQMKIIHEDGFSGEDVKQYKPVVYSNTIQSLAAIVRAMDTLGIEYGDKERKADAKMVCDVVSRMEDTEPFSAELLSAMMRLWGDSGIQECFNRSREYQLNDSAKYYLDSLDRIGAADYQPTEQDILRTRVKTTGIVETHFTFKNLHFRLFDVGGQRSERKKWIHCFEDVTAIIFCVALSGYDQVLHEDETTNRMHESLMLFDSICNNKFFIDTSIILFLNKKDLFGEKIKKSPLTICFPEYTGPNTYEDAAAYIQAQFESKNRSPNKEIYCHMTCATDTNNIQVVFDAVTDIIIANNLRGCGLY
PKD1 kinase inh – blocks activity of human protein kinase D1 | Q15139 | PKD1 kinase fluorescence polarization assay | inhibition, %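 (about 10 µM by stock and volumes)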 | 0.056% of 200,000 active | AID 797;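 active = inhibition of 50% or more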;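 note: controls were vehicle for no effect and a reference inhibitor for full effect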
INS promoter inh – TRM-6 insulin promoter activity inhibition. TRM-6 cells (human fetal islet line), insulin promoter-eGFP reporter, imaging; reporter expression induced with tamoxifen. inhibition, % at 2 µM. 0.9% of 130,000 active;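 active = inhibition above the mean plus 3 SD, with well images judged a real hit on visual review, cut at about 60% in these data, passing the limit was not always enough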
HSV augment – HSV replication enhancement | 0.005% of 220,000 active | maximum fold increase | HSV replication augmentation in cells, fold increase | AID 1956;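 active = peak rise of 1.5-fold or more in the series; tested in PC3 cells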;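 note: first round at 10 µM; read as green reporter fluorescence; hits show the peak of a series up to 25 µM; 1 = signal of infected wells without compound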
INS promoter inh cell count – also measured in INS promoter inh; calls as there; normalized cell count, %; measured here: cell count, toxicity; reference of the scale not given here;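 cells exposed to compound for 48 h; stained nuclei by imaging scaled within each plate; lower means fewer cells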
HSV augment primary fold – further read-out of HSV augment, marked with its call; fold increase; compound at 10 µM; measured here: primary screen fold increase 10 uM; tested in PC3 cells;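 GFP signal in the first replicate; 1 = infected wells without compound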
The depositor's hits bear a star; i = inactive; . = not tested or not shown.

Letters – A = GALR2 agonist; B = RGS16-Gao; C = PKD1 kinase inh; D = INS promoter inh; E = INS promoter inh cell count; F = HSV augment; G = HSV augment primary fold
Cc1nc(C)c(C(=O)NNS(=O)(=O)c2ccc3ccccc3c2)s1
  A = -1.5 | B = 112 | C = -9 | D = 43 | E = 90 | F = i | G = 0.91
Nc1nc(-c2ccc(Cl)cc2)c(N=Nc2ccc(S(=O)(=O)N3CCOCC3)cc2)s1
  A = -1.1 | B = 178 | C = 9 | D = 22 | E = 83 | F = i | G = 0.96
O=C(CS(=O)(=O)c1ccccc1)Nc1ccc(S(=O)(=O)Nc2ncccn2)cc1
  A = . | B = 26 | C = 1 | D = 27 | E = 86 | F = i | G = 0.89
CCC(C)N=CC1=C(O)CC(c2ccccc2)CC1=O (stereo not drawn)
  A = -3.6 | B = 148 | C = 2 | D = -6 | E = 153 | F = i | G = 0.95
Cc1cccc(N2CCN(C(=O)c3cccc(N4C(=O)C5CC=CC(C)C5C4=O)c3)CC2)c1C (stereo not drawn)
  A = -4.5 | B = 115 | C = -1 | D = -48 | E = 106 | F = i | G = 0.65
O=C(Nn1c(O)c(C=C2N=c3ccccc3=N2)sc1=S)c1ccccc1
  A = -1.2 | B = 98 | C = 0 | D = 7 | E = 124 | F = i | G = 1.1
CC1CCN(c2oc(-c3cccc4ccccc34)nc2C#N)CC1
  A = 2.7 | B = 106 | C = -1 | D = 8 | E = 148 | F = i | G = 0.85
CN(C)c1ccc(-c2nnn(Cc3ccccc3Br)n2)cc1
  A = -1.0 | B = 93 | C = -2 | D = -17 | E = 78 | F = i | G = 0.77
Cc1nc2c([nH]c3ccc(Br)cc32)s1
  A = 0.2 | B = 88 | C = 10 | D = 95* | E = 131* | F = i | G = 0.94
Cc1nn(C)cc1/C=C/C(=O)c1ccccc1
  A = -1.9 | B = 87 | C = -8 | D = 7 | E = 119 | F = i | G = 0.92
COC(=O)COc1cccc(NC(=O)COc2ccccc2)c1
  A = -2.5 | B = 104 | C = -6 | D = 42 | E = 101 | F = i | G = 0.97
CCOC(=O)Nc1nc(-c2ccccc2)c(C(=O)c2ccccc2)s1
  A = 1.0 | B = 105 | C = 10 | D = 19 | E = 5 | F = i | G = 0.76
O=C1c2ccccc2C(=O)N1/N=C/c1ccc(O)c(O)c1O
  A = . | B = 85 | C = . | D = . | E = . | F = i | G = 1.2
O=C(CSc1nc2ccccc2o1)N1c2ccccc2Sc2ccc(Cl)cc21
  A = -0.4 | B = 102 | C = 2 | D = 4 | E = 77 | F = i | G = 1
C/C(=N\S(=O)(=O)c1ccc(C)cc1)N1CCCCC1
  A = . | B = 100 | C = 3 | D = 5 | E = 108 | F = i | G = 1

Part of the list above in order of molar mass, high to low.
Letters – A = GALR2 agonist; B = RGS16-Gao; C = PKD1 kinase inh; D = INS promoter inh; E = INS promoter inh cell count; F = HSV augment; G = HSV augment primary fold
Nc1nc(-c2ccc(Cl)cc2)c(N=Nc2ccc(S(=O)(=O)N3CCOCC3)cc2)s1
  A = -1.1 | B = 178 | C = 9 | D = 22 | E = 83 | F = i | G = 0.96
O=C(CSc1nc2ccccc2o1)N1c2ccccc2Sc2ccc(Cl)cc21
  A = -0.4 | B = 102 | C = 2 | D = 4 | E = 77 | F = i | G = 1
O=C(Nn1c(O)c(C=C2N=c3ccccc3=N2)sc1=S)c1ccccc1
  A = -1.2 | B = 98 | C = 0 | D = 7 | E = 124 | F = i | G = 1.1
CN(C)c1ccc(-c2nnn(Cc3ccccc3Br)n2)cc1
  A = -1.0 | B = 93 | C = -2 | D = -17 | E = 78 | F = i | G = 0.77
CC1CCN(c2oc(-c3cccc4ccccc34)nc2C#N)CC1
  A = 2.7 | B = 106 | C = -1 | D = 8 | E = 148 | F = i | G = 0.85
Cc1nn(C)cc1/C=C/C(=O)c1ccccc1
  A = -1.9 | B = 87 | C = -8 | D = 7 | E = 119 | F = i | G = 0.92

Next records follow.
Letters – A = GALR2 agonist; B = RGS16-Gao; C = PKD1 kinase inh; D = INS promoter inh; E = INS promoter inh cell count; F = HSV augment; G = HSV augment primary fold
Cc1ccc2c(c1)NC(=O)C(CC(=O)NCCCN1CCCCC1)O2 (stereo not drawn)
  A = -1.1 | B = 87 | C = -7 | D = . | E = . | F = i | G = 0.83
Cc1nc2[nH]c(=S)[nH]c2cc1Br
  A = -0.1 | B = 42 | C = -9 | D = -40 | E = 37 | F = i | G = 0.99
O=C(O)C1C2C=CC(C2)C1C(=O)N1CCN(CCO)CC1 (stereo not drawn)
  A = -0.7 | B = 102 | C = 3 | D = 18 | E = 100 | F = . | G = .
CN(C(=O)N1CCN(S(=O)(=O)c2ccccc2)CC1)c1ccccc1
  A = . | B = 97 | C = 2 | D = 58 | E = 71 | F = i | G = 1.1
CC1(C)CC(=O)C2=C(C1)N(c1ccc(F)cc1)C(N)=C(C#N)C2c1cccs1 (stereo not drawn)
  A = 0.5 | B = 106 | C = -10 | D = -26 | E = 173 | F = i | G = 0.96
COc1cc(C(=O)NCCOc2ccccc2C)c(Br)c(OC)c1OC
  A = -2.0 | B = 107 | C = -4 | D = -28 | E = 108 | F = i | G = 0.98
C/C(=N\NC(=O)c1ccc(CSc2nncn2C)cc1)c1ccc2ccccc2c1
  A = 0.6 | B = 104 | C = -5 | D = -27 | E = 97 | F = i | G = 0.87
Clc1ccc(-c2nnc(SCc3nc(-c4ccccc4)no3)o2)cc1
  A = -4.8 | B = 83 | C = -6 | D = . | E = . | F = i | G = 1.1
Cc1nc(C(=O)NNC(=O)c2cccc(Cl)c2)c(C(F)(F)F)o1
  A = . | B = 97 | C = . | D = . | E = . | F = i | G = 1.1
Cc1cccc(N(C(=O)CCC(=O)Nc2cc(C)on2)C(C(=O)NC2CCCC2)c2ccc(C)o2)c1 (stereo not drawn)
  A = . | B = 115 | C = 2 | D = . | E = . | F = i | G = 0.82
COc1ccc(-c2cn(-c3ccc(Br)cc3)c3[n+]2CCS3)cc1
  A = -3.4 | B = 98 | C = -4 | D = 50 | E = 144 | F = i | G = 0.93
CCn1cc(C(=O)NCc2ccccc2)c(=O)c2cc(F)c(N3CCN(C(=O)c4ccco4)CC3)cc21
  A = -0.3 | B = 97 | C = 0 | D = -38 | E = 79 | F = i | G = 0.55
O=C(NCc1cccs1)C1CCC(CNS(=O)(=O)c2ccccc2)CC1 (stereo not drawn)
  A = . | B = 102 | C = 0 | D = -27 | E = 88 | F = i | G = 1
N#Cc1cc2c(nc1SCc1cccnc1)CCC2
  A = -1.6 | B = 101 | C = -2 | D = . | E = . | F = i | G = 0.89
CCSc1nnc(NC(=O)c2nn(C(C)C)c(=O)c3ccccc23)s1
  A = -1.6 | B = 103 | C = -8 | D = -226 | E = 52 | F = i | G = 0.85
CC(=O)c1ccc2c(c1)OCCOCCOCCOCCO2
  A = . | B = 104 | C = . | D = . | E = . | F = i | G = 0.94
C/C(=N\n1c(C)cc(C)c(C#N)c1=O)c1cccs1
  A = -0.9 | B = 98 | C = 1 | D = 2 | E = 91 | F = i | G = 1.1
Cc1cc(N/N=C/c2ccccc2[N+](=O)[O-])nc(-n2nc(C)cc2C)n1
  A = . | B = 97 | C = . | D = . | E = . | F = i | G = 0.52
Cc1cc(Cl)ccc1NC(=S)N1CCN(Cc2ccc3c(c2)OCO3)CC1
  A = 0.1 | B = 189 | C = -1 | D = 11 | E = 116 | F = i | G = 0.91
CC(C)CC(NC(=O)c1ccc(Cl)cc1Cl)C(=O)O (stereo not drawn)
  A = -0.2 | B = 70 | C = -4 | D = 3 | E = 95 | F = i | G = 0.94
Cc1ccc(NS(=O)(=O)c2cccc(C(=O)OCC(=O)NCc3ccco3)c2)cc1
  A = -1.3 | B = 444 | C = 3 | D = -9 | E = 75 | F = i | G = 0.87
O=C(O)/C=C/c1coc2ccccc2c1=O
  A = -1.1 | B = 121 | C = 3 | D = 17 | E = 92 | F = i | G = 1.1
O=c1[nH][nH]c(-c2ccccc2)c1C=Nc1ccc(C(F)(F)F)cc1
  A = . | B = 100 | C = 2 | D = . | E = . | F = i | G = 0.98
C/C(=N\NS(=O)(=O)c1ccc(C)cc1)c1ccc(C)s1
  A = -2.6 | B = 87 | C = -2 | D = -35 | E = 177 | F = i | G = 0.71
CCOC(=O)C1CCCN(C(=O)c2cn(CC)c3ccc(S(=O)(=O)N(C)C)cc3c2=O)C1 (stereo not drawn)
  A = -2.1 | B = 99 | C = 2 | D = . | E = . | F = i | G = 0.96
Cc1cnc(NC(=O)CSc2nnc(-c3ccc(Cl)cc3Cl)n2N)s1
  A = -1.9 | B = 96 | C = -4 | D = 64 | E = 130 | F = i | G = 0.75
O=C(NC1CCCCC1)C(c1cccs1)N(C(=O)c1ccccn1)c1ccccc1 (stereo not drawn)
  A = -0.5 | B = 98 | C = -3 | D = -179 | E = 87 | F = i | G = 1
CC1CCN(C(=O)CCc2ccc(Oc3cc([N+](=O)[O-])cc([N+](=O)[O-])c3)cc2)CC1
  A = -1.3 | B = 96 | C = -7 | D = -57 | E = 73 | F = i | G = 1
COc1ccccc1OCc1nc2ccccc2s1
  A = -0.8 | B = 98 | C = -3 | D = -2 | E = 108 | F = i | G = 1
NC(=O)c1cnn(Cc2ccc(Cl)cc2)c1N
  A = -1.3 | B = 106 | C = 0 | D = . | E = . | F = i | G = 1
Cc1ccn2cc(-c3cccc(NC(=O)C(C)C)c3)nc2c1
  A = . | B = 101 | C = 0 | D = 0 | E = 105 | F = i | G = 0.91
CN(C)c1ccc(C(=O)Nc2ccc(S(=O)(=O)NC3=NCCCCC3)cc2)cc1
  A = -0.6 | B = . | C = 2 | D = -54 | E = 99 | F = i | G = 1
CC(=O)NCCSCCNC(C)=O
  A = -1.0 | B = 103 | C = -2 | D = -35 | E = 156 | F = i | G = 0.89
NC(=O)C1CC=CCC1C(=O)OCC(Cl)=C(Cl)Cl (stereo not drawn)
  A = 0.3 | B = 79 | C = -1 | D = . | E = . | F = i | G = 1.1
COCCNC(=O)c1ccccc1NS(=O)(=O)c1ccc(C)c([N+](=O)[O-])c1
  A = 0.0 | B = 95 | C = -7 | D = 11 | E = 78 | F = i | G = 1.1
CCOCCCNC(=O)C(c1ccc(C)cc1)N(Cc1cccs1)C(=O)c1ccccc1O (stereo not drawn)
  A = . | B = 122 | C = -3 | D = . | E = . | F = i | G = 1.1
Cc1ccc(-c2nn(-c3ccccc3)cc2C2SCC(=O)N2Cc2ccccc2)o1 (stereo not drawn)
  A = -1.0 | B = 84 | C = 9 | D = . | E = . | F = i | G = 0.92
COC(=O)c1ccc(C(=O)Nc2nnc(-c3cccnc3)o2)cc1
  A = . | B = 104 | C = -7 | D = . | E = . | F = i | G = 0.97
CC(C)CCC(C(=O)O)C(C)CC(=O)Nc1ccn(-c2ccccc2)n1 (stereo not drawn)
  A = . | B = 102 | C = . | D = . | E = . | F = i | G = 0.97
CCOC(=O)C1=C(C)N(c2nonc2NC(C)=O)C(N)=C(C#N)C1c1ccccc1F (stereo not drawn)
  A = 0.4 | B = 106 | C = 0 | D = 43 | E = 84 | F = i | G = 1.1
S=C(NC1CCCCC1)N1CCOCCOCCN(C(=S)NC2CCCCC2)CCOCC1
  A = . | B = 101 | C = . | D = . | E = . | F = i | G = 0.96
CCOC(=O)c1ccc(N2C(=O)CC(Sc3nc(O)c(CC)c(=O)[nH]3)C2=O)cc1 (stereo not drawn)
  A = 0.2 | B = 99 | C = -8 | D = 0 | E = 82 | F = i | G = 0.9
O=C(NCC(=O)N(c1cccnc1)C(C(=O)NC1CCCC1)c1cccs1)c1cccs1 (stereo not drawn)
  A = . | B = 101 | C = 3 | D = . | E = . | F = i | G = 1.1
Oc1ccc(Cl)cc1CNCC1CCCO1 (stereo not drawn)
  A = -2.9 | B = 109 | C = 2 | D = 0 | E = 68 | F = i | G = 0.83
CCOC(=O)c1cnc(Nc2nc3ccccc3o2)nc1CSC(=S)N1CCCCC1
  A = -0.3 | B = 125 | C = -5 | D = 59 | E = 68 | F = i | G = 0.92
c1ccc(-c2nnc(CN3CCCc4ccccc43)o2)cc1
  A = -1.7 | B = 105 | C = -1 | D = -17 | E = 126 | F = i | G = 0.95
N#Cc1nc(Cl)c(Cl)c(NN)c1Cl
  A = . | B = 98 | C = . | D = . | E = . | F = i | G = 0.98
Cc1ccc(-n2c(CNc3ccc(F)cc3)nnc2SCC(=O)N2CCCC2)cc1
  A = -1.8 | B = 98 | C = 7 | D = -162 | E = 101 | F = i | G = 1.1
Cn1nc(-c2ccc(Cl)cc2)cc1NC(=O)Nc1ccccc1
  A = . | B = 99 | C = . | D = . | E = . | F = i | G = 1
COc1ccc(/C=C(\NC(=O)c2ccccc2)C(=O)NC2CCS(=O)(=O)C2)cc1 (stereo not drawn)
  A = . | B = 104 | C = . | D = . | E = . | F = i | G = 1.1
